# Compound activity: PubChem BioAssay, several laboratories
# YopH inh – blocks Yersinia enterocolitica YopH tyrosine phosphatase | inhibition, %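 (about 10 µM by stock and volumes)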 | 140,000 tested, 0.16% active | fluorescence Ex485/Em525;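 active means inhibition of 50% or more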;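 further: controls were vehicle for no effect and minimum signal wells for full effect; inactives centre near -20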
# Arbovirus anti – blocks arbovirus infection | arbovirus infection cell-based antiviral screen | inhibition, % at 10 µM | 200,000 tested, 0.37% active;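 active means inhibition from about 30%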;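 further: bluetongue infection of BSR cells; cell survival read as ATP light after 72 h; 0% = infected wells without compound and 100% = uninfected wells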
# Mtb betalactam – beta-lactam sensitization of Mtb H37Rv | inhibition, % at 25 µM | 330,000 tested, 0.27% active | M. tuberculosis H37Rv growth with meropenem, percent inhibition; hits of this screen are not shown here;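 active means about 74% or more and at least 40 points above the plate without the antibiotic, then above 30% in a dose series; inconclusive means first-round hits that could not be retested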;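 further: growth measured after seven days incubation then overnight dye step; 0% = bacteria only wells and 100% = bacteria with antibiotic; twin plates without the antibiotic show which effects depend on it; some results filed as inactive read as strong as hits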
# RecA intein inh – Mtb RecA intein splicing inhibition; AID 2221; 290,000 tested, 0.75% active; cell-free RecA intein splicing, fluorescence; P9WHJ3; inhibition, %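 (about 9 µM by stock and volumes)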; in the data active means inhibition above about 30%; inconclusive means no clear call, values can overlap the other calls;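 further: 0% = vehicle wells and 100% = reference inhibitor control wells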
# Target sequence (P9WHJ3 whole entry, looked up): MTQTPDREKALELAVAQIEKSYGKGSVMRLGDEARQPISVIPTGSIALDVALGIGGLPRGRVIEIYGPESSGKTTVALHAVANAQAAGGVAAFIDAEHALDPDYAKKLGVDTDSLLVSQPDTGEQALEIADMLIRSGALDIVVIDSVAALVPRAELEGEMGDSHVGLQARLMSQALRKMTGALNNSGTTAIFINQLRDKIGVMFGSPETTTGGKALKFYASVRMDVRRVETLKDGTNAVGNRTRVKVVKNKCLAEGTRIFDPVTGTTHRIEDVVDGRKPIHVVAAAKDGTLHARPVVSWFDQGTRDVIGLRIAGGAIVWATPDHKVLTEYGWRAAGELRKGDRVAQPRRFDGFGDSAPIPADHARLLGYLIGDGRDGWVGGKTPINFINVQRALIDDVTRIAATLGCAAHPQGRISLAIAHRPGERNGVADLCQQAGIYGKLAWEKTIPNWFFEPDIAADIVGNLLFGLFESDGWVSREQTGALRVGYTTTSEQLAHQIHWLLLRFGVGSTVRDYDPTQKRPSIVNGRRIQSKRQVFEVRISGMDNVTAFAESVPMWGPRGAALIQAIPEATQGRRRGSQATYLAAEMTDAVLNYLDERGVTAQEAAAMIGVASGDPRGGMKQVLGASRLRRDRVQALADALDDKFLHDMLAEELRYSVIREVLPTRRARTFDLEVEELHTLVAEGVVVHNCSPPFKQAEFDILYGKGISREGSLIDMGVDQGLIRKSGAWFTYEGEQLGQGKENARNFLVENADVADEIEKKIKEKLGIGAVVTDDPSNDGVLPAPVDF
# Mtb H37Rv – M. tuberculosis H37Rv growth inhibitors, H37Rv strain (AID 1626) | M. tuberculosis H37Rv growth inhibition; higher % means a stronger effect | inhibition, % at 10 µM, or IC50 in µM where a hit was titrated | 220,000 tested, 0.95% active;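 active means confirmed in a dose series; inconclusive means inhibition above 80% but not taken into the dose series; inactive means below 80% or under 30% at every dose of the series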;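 further: bacteria incubated seven days before Alamar blue readout; 0% = bacteria only wells and 100% = bacteria with antibiotic wells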
# Arbovirus anti repeat – recorded beside Arbovirus anti, whose call it bears; inhibition, %; measured here: 10K subset replicate screen; many hits read low in the repeat;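 first of two repeat runs on a subset; 0% = infected and 100% = uninfected wells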
# * marks the source's active call; other numbers are inactive results; u = inconclusive; x = no result given. Not all compounds are listed; the hit share may differ from the screen's.
SMILES,YopH inh,Arbovirus anti,Mtb betalactam,RecA intein inh,Mtb H37Rv,others
CCn1c2ccccc2c2cc(/C=N/NC(=O)c3cccc(C)c3)ccc21,7,-24,u,0.5,-2%,
COc1ccccc1C1C(C(=O)NCc2ccccc2)=C(C)Nc2ncnn21 (centres undefined),-40,-1,u,-5.0,-2%,
Cc1ccccc1N=C1NC(=O)/C(=C/c2cccn2-c2cccc(C(=O)O)c2)S1,x,76*,x,2.7,-8%,
O=C(N/N=C/c1cccc(OC(=O)c2ccc3c(c2)OCO3)c1)c1cncc(Br)c1,-22,1,91,-0.2,64%,
CCCC(C)NC(=O)COC(=O)c1ccccc1SCC(=O)NC(C)CCC (centres undefined),x,2,-12,-0.9,-1%,
COC(=O)[C@H](c1ccccc1Cl)N1CCc2sccc2C1,x,x,4,-3.8,x,
O=[N+]([O-])c1cc(C(F)(F)F)cc([N+](=O)[O-])c1NCCNC(=S)Nc1ccc(Cl)c(Cl)c1,x,x,92,30*,u,
COc1ccc2cc(C)c3nnc(SCC(=O)Nc4nc(-c5ccc(F)cc5)cs4)n3c2c1,-33,-28,6,3.0,5%,
CCc1ccc(N=C2NC(=O)/C(=C/c3cc(OC)c(O)c(OC)c3)S2)cc1,x,x,100,-2.6,x,
CC(=O)Nc1ccc(C(=O)Nc2ccc(S(=O)(=O)NCC3CCCO3)cc2)cc1 (centres undefined),-31,-5,2,-0.5,-6%,
COC(=O)c1cc(CNC(=O)C(C)NS(=O)(=O)c2ccc(C)c(C)c2)ccc1OC (centres undefined),x,x,8,-0.5,x,
Cc1nc2ccc(N=NC3=C(O)CC(C)(C)CC3=O)cc2s1,-36,-5,3,1.5,2%,
Cc1c(C(=O)O)c(C(=O)O)nc2ccc(N3CCOCC3)cc12,x,2,-3,-13,9%,
CC(C)C[C@H](NC(=O)N1CC(=O)Nc2ccccc21)C(=O)N[C@@H](Cc1c[nH]c2ccccc12)C(=O)O,x,x,2,3.3,x,
CCOC(=O)c1c2ccccc2[n+]([O-])n1CCO,x,x,-2,-2.0,x,
CC(=O)c1ccc(OCC(C)C)c(CN2CCCCC2)c1,-33,8,1,0.2,-2%,
CCCCCCn1c(CN2CCCCC2)nc2c1c(=O)n(C)c(=O)n2C,-11,x,-1,2.6,-5%,
CCOC(=O)C(C)(C)N(Cc1cccc(C)c1)S(=O)(=O)c1cccc([N+](=O)[O-])c1,-23,11,-2,13,4%,
CC1(C)Cc2c(cnn2-c2ccccc2)C(NC(=O)C2(C(N)=O)CC2)C1 (centres undefined),x,x,-11,-3.9,x,
COc1ccc2c(c1OC)C(=O)OC2CC(=O)c1ccc(O)cc1 (centres undefined),-50,3,-8,-2.1,x,Arbovirus anti repeat=-5
O=C(CNc1cccc([N+](=O)[O-])c1)N/N=C/c1ccc(F)cc1,x,1,-1,4.5,1%,
CCn1c(SCC(=O)N/N=C(/C)c2ccncc2)nc2ccccc21,x,x,-1,2.5,u,
COc1ccccc1N=C(C)C1=C(O)COC1=O,-33,-1,4,1.8,3%,
CCOc1ccccc1/C=N/n1nnnc1N,x,x,2,0.6,x,
CCCC/C(C)=C/[C@@H](NP(=O)(c1ccccc1)c1ccccc1)c1ccccc1,-16,-48,82,2.9,6%,

# 7 records picked at random from the list so far, as already listed:
SMILES,YopH inh,Arbovirus anti,Mtb betalactam,RecA intein inh,Mtb H37Rv,others
O=C(N/N=C/c1cccc(OC(=O)c2ccc3c(c2)OCO3)c1)c1cncc(Br)c1,-22,1,91,-0.2,64%,
Cc1nc2ccc(N=NC3=C(O)CC(C)(C)CC3=O)cc2s1,-36,-5,3,1.5,2%,
CCn1c2ccccc2c2cc(/C=N/NC(=O)c3cccc(C)c3)ccc21,7,-24,u,0.5,-2%,
COc1ccccc1N=C(C)C1=C(O)COC1=O,-33,-1,4,1.8,3%,
COc1ccccc1C1C(C(=O)NCc2ccccc2)=C(C)Nc2ncnn21 (centres undefined),-40,-1,u,-5.0,-2%,
CCCCCCn1c(CN2CCCCC2)nc2c1c(=O)n(C)c(=O)n2C,-11,x,-1,2.6,-5%,
CCn1c(SCC(=O)N/N=C(/C)c2ccncc2)nc2ccccc21,x,x,-1,2.5,u,

# Other structures
SMILES,YopH inh,Arbovirus anti,Mtb betalactam,RecA intein inh,Mtb H37Rv,others
O=C(N=C1SC2CS(=O)(=O)CC2N1c1ccc(F)cc1)C1CC1 (centres undefined),x,x,8,0.0,x,
Cc1ccc(C)c(Cn2c(C)nc3c(sc(=S)n3-c3ccccc3)c2=O)c1,x,-6,0,-1.8,-10%,
CNc1nc(CC(C)=O)ns1,5,10,-3,0.2,-10%,
COc1ccc(/C=C/c2onc(C)c2S(=O)(=O)N2CCC(C(=O)N3CCC(C)CC3)CC2)cc1,x,x,4,-0.2,x,
CC(C)C(CCN1C(=O)c2ccccc2C1=O)c1ccco1 (centres undefined),-15,0,-10,8.8,-1%,
O=[N+]([O-])c1ccccc1S(=O)(=O)N1CCN(CC2CC=CCC2)CC1 (centres undefined),x,0,-3,-0.7,-3%,
CCOC(=O)N1CCN(Cc2nc3c(c(=O)n(C)c(=O)n3C)n2Cc2ccccc2)CC1,-27,3,5,-2.3,-1%,Arbovirus anti repeat=0
CCOC(=O)Cn1cnc2c(nnn2-c2ccc(F)cc2)c1=O,x,x,8,-9.2,x,
COC(=O)c1cccc(NC(=O)Cc2coc3cc(OC)ccc23)c1,-27,2,4,5.7,7%,
COc1ccccc1NCC(O)Cn1c2ccccc2c2ccccc21 (centres undefined),11,-29,-2,x,3%,
CS(=O)(=O)c1ccc2nc(NC(=O)CCN3C(=O)c4ccccc4C3=O)sc2c1,x,-3,2,-3.6,4%,
O=C(N/C(=C\c1cccnc1)C(=O)N1CCC(O)CC1)c1ccccc1,x,x,2,0.3,x,
O=C(c1ccc(NS(=O)(=O)c2ccc(F)cc2)cc1)N1CCCCC1,x,x,-9,0.6,x,
O=C(CN(C(=O)c1csnn1)c1ccc(Cl)cc1)NCc1ccc2c(c1)OCO2,x,x,-3,1.1,x,
C=CCn1c(NCc2ccccc2OC)nc2ccccc21,x,x,-9,2.6,x,
COc1ccc(OCCNC(=O)c2ccccc2Cl)cc1,x,x,14,-4.2,x,
O=C1Nc2ccccc2/C1=C/c1ccc([N+](=O)[O-])cc1,x,x,9,13,x,
CCOC(=O)c1ccc2c(c1)[nH]c(=S)n2CC,x,-12,-3,9.2,-5%,
COc1cc(N2CCOCC2)ccc1/C=C1\C(=O)NC(=O)N(Cc2ccc3c(c2)OCO3)C1=O,x,-3,-4,1.7,-5%,
OCCC1CN(CC2CC2)CCN1Cc1ccc(F)c(F)c1 (centres undefined),x,x,-4,-2.0,x,
COc1ccc(-n2ncc3c2CC(C)(C)CC3NC(=O)C2CCN(C(C)=O)CC2)cc1 (centres undefined),x,x,-4,-3.7,x,
Cc1ccccc1NC(=O)C(=O)NCc1ccccn1,-17,2,-15,-3.1,3%,
O=C(c1ccc2[nH]c(=O)c(=O)[nH]c2c1)N1CCc2ccccc2C1,x,x,0,1.1,x,
COc1ccc(OC)c(/C=C(\C)C(=O)c2c(C)cc(C)[nH]c2=O)c1,x,x,-10,-2.3,x,
NC(=O)CC(NC(=O)c1ccccc1)c1ccc(N2CCN(c3ccccn3)CC2)c([N+](=O)[O-])c1 (centres undefined),x,x,-16,0.6,x,
# Following part
SMILES,YopH inh,Arbovirus anti,Mtb betalactam,RecA intein inh,Mtb H37Rv,others
CCC1SC2=NC(C)=C(C(=O)OCCOC)C(c3ccc(C(=O)OC)cc3)N2C1=O (centres undefined),-30,3,-3,4.7,-5%,
COc1ccc(C2Nc3ccccc3C(=O)N2Cc2ccccc2)cc1OC (centres undefined),x,x,1,0.9,x,
Cc1ccc(C(=O)CSc2nnnn2-c2ccccc2)o1,x,2,4,-5.3,8%,
Nn1c(SCC(=O)Nc2ccc3c(c2)OCO3)nnc1-c1ccccc1,-16,6,58,-3.4,-1%,
CCOc1ccc(NC(=O)CN(C)C(=O)c2cc(S(=O)(=O)N3CCCCCC3)ccc2OC)cc1OCC,x,x,-1,1.3,x,
C[C@]12CS(=O)(=O)C[C@H]1SC(=S)N2c1ccccc1,x,x,-2,-2.1,-3%,
COc1ccc(N(CCC#N)C(=O)/C(C#N)=C/c2cccs2)cc1,x,3,-5,1.6,-6%,
CN(CC(=O)Nc1ccc(Cl)cc1)C(=O)c1ccc(S(=O)(=O)Nc2ccccc2)cc1,x,x,6,-1.2,x,
Cc1nc2c(C(=O)NCc3ccc4c(c3)OCO4)cnn2c(C)c1Cc1ccc(F)cc1Cl,-29,-3,8,-0.5,4%,
CCOC(=O)CC(NC(=O)Cn1nnc(-c2ccccc2C)n1)c1ccc(OC)cc1 (centres undefined),x,17,-11,0.1,-2%,
CC1(C)CC2CC(C)(CN2C(=O)CN2C(=O)c3ccccc3C2=O)C1 (centres undefined),-19,2,-4,1.9,-1%,
Cc1cc(NCc2ccccn2)n2ncc(-c3ccc(Cl)cc3)c2n1,x,x,100,1.9,u,
Cc1nc2ccc(Br)cn2c1C(=O)N/N=C\c1ccccc1Cl,x,x,-3,-4.1,x,
O=C(Cc1cccc2ccccc12)NNC(=O)Nc1ccc(Cl)cc1,x,x,0,1.2,7%,
CC(C)(Oc1ccc(Cl)cc1)C(=O)Nc1ccc2oc(-c3ccncc3)nc2c1,-52,-1,-5,-9.4,0%,
Cc1ccc(N2C(=O)N(CC(=O)NC(c3ccccc3)c3ccccc3)C(=O)C2C)cc1 (centres undefined),-18,-10,-4,3.9,-5%,
CCCN1CCC(=NNc2ccc(S(=O)(=O)N3CCOCC3)cc2[N+](=O)[O-])CC1,-14,-17,2,-3.0,-4%,
COc1cccc(COC(=O)CCNC(=O)c2ccc(Cl)cc2)c1OC,x,x,59,0.7,x,
Cc1onc(NC(=O)c2ccc(Cl)cc2Cl)c1Br,x,-1,0,x,6%,
CCOC(=O)c1[nH]c(C)c(C(=O)N2CCN(C(=O)OCC)CC2)c1CC,-20,0,-3,3.2,-1%,
COc1ccccc1C(=O)Nc1ccon1,-8,1,-4,-1.0,-3%,
COc1ccc(N2CCN(C(=O)CCn3nnc4ccccc43)CC2)cc1,-39,-1,-4,-0.8,-6%,
CCOC(=O)c1c(-c2ccccc2)oc2cc(Br)c(O)c(C=O)c12,x,x,u,2.0,x,
CCCN1C(=O)C(O)(CC(=O)c2cccc(OC)c2)c2ccccc21 (centres undefined),5,-14,63,-0.6,-1%,
O=C(CC(c1ccccc1)c1cc(Cl)ccc1O)N1CCOCC1 (centres undefined),-9,7,-7,-0.7,3%,
# (listing goes on)
SMILES,YopH inh,Arbovirus anti,Mtb betalactam,RecA intein inh,Mtb H37Rv,others
O=C(Nc1ncc2c(n1)-c1ccccc1CC2)c1cccs1,x,3,8,2.2,4%,
O=C(O)c1cccc(-n2c(-c3cnccn3)n[nH]c2=S)c1,x,2,-2,-7.3,4%,
O=C(COC(=O)c1ccccc1Nc1cccc(C(F)(F)F)c1)NCc1ccco1,-22,18,-3,6.6,13%,
O=C1OCC/C1=C\c1ccc2c(c1)OCO2,x,x,-6,3.6,1%,
O=C(CNS(=O)(=O)c1cccc2nsnc12)NCCc1ccccc1,x,x,-2,4.2,x,
CC(=O)NC(CCS(C)(=O)=O)C(=O)Nc1ccccc1C (centres undefined),-14,12,13,-0.5,1%,
Cc1ccc(-c2nc(-c3ccncc3)no2)cc1,x,x,-3,3.2,x,
O=C1c2ccccc2NC(c2ccccc2O)N1c1ccc(F)cc1 (centres undefined),x,x,-2,-0.9,x,
CCc1ccc(/C=N/n2c(C3CCCCC3)n[nH]c2=S)cc1,x,x,u,8.9,x,
COc1cccc(N2CC(NS(=O)(=O)c3ccc(Cl)cc3)CC2=O)c1 (centres undefined),x,x,-1,-2.1,x,
N#Cc1ccccc1COc1ccc(/C=C/C(=O)O)cc1,x,3,-7,1.7,-10%,
Cc1cccc(N2C(=O)/C(=C/c3cccnc3)SC2=S)c1,x,x,-8,x,-14%,
COc1ccc(/C(O)=C/C(=O)C(=O)NNC(=O)c2ccccc2)cc1,x,x,3,0.5,x,
Cc1ccc(/C=C/C(=O)O)cc1S(=O)(=O)NCC1CCCO1 (centres undefined),x,7,-4,-2.2,-4%,
CN(CCOC(=O)c1ccc2c(c1)OCO2)C(C)(C)C,x,2,-4,0.5,-1%,
COc1cc(N=C2C(=O)N3c4c(cccc42)C(C)=CC3(C)C)cc(OC)c1,-13,3,1,20,47µM*,
Cc1ccc(C(=O)Nc2nc3ccccc3c(=O)s2)cc1,-8,-13,61,-1.3,0%,
CCOC(=O)c1ccc(CNCc2ccccc2)cc1,-20,4,0,-1.7,6%,
O=C(O)c1ccc(S(=O)(=O)c2ccc([N+](=O)[O-])cc2[N+](=O)[O-])cc1,x,x,2,4.1,x,
COc1cc(OC)cc(-c2nnc(SCc3c(F)cccc3Cl)o2)c1,-19,-2,-4,x,2%,
CC(C)C(=O)Nc1ccc(N2CCN(C(=O)c3cccs3)CC2)cc1,-31,0,-6,2.2,-6%,
